# PINK1 expr mod = A Quantitative High throughput Screen to Identify Chemical Modulators of PINK1 Expression | PINK1 immunofluorescence, high-content cytometry, 24 h | Potency, µM (titrated, usually from 76.6 µM), for the others: at the top dose activation (PINK1 increase), usual class: activators | 410,000 tested, 0.2% active | AID 624263, 2012; active = well fitted activation curve with a large enough effect; inconclusive = small, poorly fitted or top-dose-only effect; inactive = flat fitted curve, though single readings scatter; cell line not stated here;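 note: potency is the fitted concentration of half-maximal effect; % of control where 0% means no effect; nearly all actives have a fitted effect of over 65% in size; a mitochondrial uncoupler was the plate control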
#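 Fluorescence from anti-PINK1 antibody, together with nuclear and cell stains, was scanned on a laser-scanning cytometer. Before staining, stable-line cells were incubated 24 hours with compounds at 5 concentrations; primary antibody 12 h at 10 degrees C.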
# D2 agonist = Beta-Arrestin HTS for Positive Allosteric Modulators of the Human D2 Dopamine Receptor: Agonists. 360,000 tested, 0.084% active. D(2) dopamine receptor (Homo sapiens), P14416. DiscoveRx PathHunter D2 beta-arrestin, luminescence, 90 min; 100% = 57 uM dopamine signal. AID 624465, 2012. activation, % (concentration not given with the values); in the data active = activation above about 40%; inconclusive = about 15% to 40%; inactive = below about 15%; note: compound concentration not given in the record; the text of the record calls up to 30% inactive
# Target sequence (P14416 whole entry, looked up): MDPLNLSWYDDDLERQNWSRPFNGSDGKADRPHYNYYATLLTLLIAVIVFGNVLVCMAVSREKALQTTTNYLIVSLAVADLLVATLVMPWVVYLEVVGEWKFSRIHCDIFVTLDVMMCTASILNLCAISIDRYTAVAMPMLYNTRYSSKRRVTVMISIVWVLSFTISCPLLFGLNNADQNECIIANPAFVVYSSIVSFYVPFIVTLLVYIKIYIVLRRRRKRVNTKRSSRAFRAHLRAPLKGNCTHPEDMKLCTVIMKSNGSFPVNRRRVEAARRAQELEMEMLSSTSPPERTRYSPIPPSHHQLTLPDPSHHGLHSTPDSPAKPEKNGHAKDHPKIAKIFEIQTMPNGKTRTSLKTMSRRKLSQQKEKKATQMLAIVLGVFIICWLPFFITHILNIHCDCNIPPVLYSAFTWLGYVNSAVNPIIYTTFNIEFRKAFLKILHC
#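 DiscoveRx PathHunter D2 beta-arrestin cells (2,100/well) attached overnight, then compound-stimulated 90 min at 37 C in HBSS/10 mM HEPES/0.1% Tween-20 buffer; beta-galactosidase complementation read by luminescence after 1 h at ambient temperature. Dopamine 57 uM final (EC100) as control.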
# gsp antag = qHTS for Antagonists of gsp, the Etiologic Mutation Responsible for Fibrous Dysplasia/McCune-Albright Syndrome: qHTS; gsp-mutant cells, cAMP HTRF, 30 min; control for the full effect not named in the record; Potency, µM (titrated, usually from 76.9 µM), for the others: top-dose activity change, negative = inhibition, actives largely listed as inhibitors; 340,000 tested, 0.4% active; AID 624288, 2012; active = falling curve of any shape with a large fitted effect; inconclusive = falling curve, mostly with a smaller effect; inactive = flat or rising curve; cell line not stated here;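 note: intracellular cAMP measured with PDE inhibitor Ro 20-1724 present during compound exposure; potency is the fitted concentration of half-maximal effect; % is set by controls: 0 for no effect and ±100 for the full control effect; nearly all actives have a fitted effect of over 65% in size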
#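 Measurement of cellular cAMP by homogeneous time-resolved fluorescence following a 30 min compound exposure at 37C. The PDE inhibitor […] was present throughout; the assay buffer was DPBS with 0.05% BSA and 0.005% Tween 20.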
# Sfp PPTase inh = qHTS Assay for Inhibitors of Bacillus subtilis Sfp phosphopantetheinyl transferase (PPTase) | 4'-phosphopantetheinyl transferase ffp (Bacillus subtilis), Q9F4F7 | Biochemical Sfp PPTase activity, qHTS | 310,000 tested, 3.5% active | Potency, µM, for inactives: max response, negative = inhibition, most hits filed as inhibitors; active = well fitted inhibition curve with a large enough effect; inconclusive = small, poorly fitted or top-dose-only effect, or another doubt; inactive = no such curve, though single readings can be large or run the other way;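 note: the enzyme is Sfp with the accession as filed and its product quenches rhodamine fluorescence; potency is the fitted concentration of half-maximal effect; 0% = enzyme reaction without inhibitor and -100% = no enzyme wells; top concentration of the series not given in the record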
#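 Sfp 15 nM + cpd, 15 min RT; start w/ rhodamine-CoA 5 uM, BHQ-2-YbbR 12.5 uM (final); 50 mM Hepes pH 7.6, 10 mM MgCl2, 0.01% NP-40, 0.01% BSA; read 525/598 nm at 0 and 30 min.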
# Menin-MLL FL inh = qHTS Assay for Inhibitors Targeting the Menin-MLL Interaction in MLL Related Leukemias: Competition With Fluorescein Labeled MLL-derived Peptide. Fluorescence polarization, fluorescein-MLL peptide displacement from menin. FP activity change, % at 61.4 µM. 290,000 tested, under 10 active. AID 1766, 2009; inconclusive = falling polarisation curve, or a change in total fluorescence; inactive = total fluorescence flat and polarisation flat or rising; no compound was filed as active; the % refers to the polarisation; negative = inhibition;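 note: % of control where 0% means no effect; inhibitors lower the polarisation; unlabelled MLL peptide was the positive control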
# ClpP mod = qHTS Assay for Activators of ClpP; purified B. subtilis ClpP, FRET peptide cleavage, 20 min; Potency, µM (highest dose often 57.5 µM), for inactives: at the highest dose activity change, negative = active; 340,000 tested, 1.9% active; AID 651965, 2013; active = well fitted falling curve with a large enough effect; inconclusive = small, poorly fitted or top-dose-only effect; inactive = no such curve, though single readings can be large or run the other way; note: potency is the fitted concentration of half-maximal effect; the source files actives as falling curves though it sought activators and does not explain the sign; nearly all actives have a fitted effect of over 65% in size; many hits overshoot -100%
# Target sequence (P80244 whole entry, looked up): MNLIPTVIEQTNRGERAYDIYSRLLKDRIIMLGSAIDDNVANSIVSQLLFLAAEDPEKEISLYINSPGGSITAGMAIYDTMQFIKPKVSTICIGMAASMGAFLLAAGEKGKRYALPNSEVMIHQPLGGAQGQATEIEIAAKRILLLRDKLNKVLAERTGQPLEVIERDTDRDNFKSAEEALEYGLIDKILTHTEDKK
#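 Buffer: 100 mM Tris/HCl pH8, 100 mM KCl, 0.05% low protease BSA, 2.5% glycerol, 0.01% Tween-20. ClpP 10 microg/mL final; 20 min RT; delta FRET normalized to ADEP and DMSO controls.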
# gsp agonist = qHTS for Agonist of gsp, the Etiologic Mutation Responsible for Fibrous Dysplasia/McCune-Albright Syndrome: qHTS; gsp mutant cells, cAMP HTRF, 30 min; control for the full effect not named in the record; Potency, µM (doses to about 76.9 µM), for the others: top-dose activation (cAMP increase), hits mostly activators; 340,000 tested, 0.13% active; active = well fitted activation curve with a large enough effect; inconclusive = small, poorly fitted or top-dose-only effect, or another doubt; inactive = no such curve, though single readings can be large or run the other way; cell line not stated here;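 note: phosphodiesterase inhibitor Ro 20-1724 added with compounds to block cAMP breakdown; potency is the fitted concentration of half-maximal effect; nearly all actives have a fitted effect of over 60% in size; about a fifth of the inactives were tested at one dose only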
#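 Cells stably selected in G418 were plated at 2000/well, grown 16-24 hr, then given compounds in DMSO with the PDE inhibitor […] (300 uM solution added) for 30 min at 37C; cAMP was read by HTRF.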
# * hit, by the source's call; ? = inconclusive; nt = no result given; [ ] = another dose, or the depositor's remark.
Molecule | PINK1 expr mod | D2 agonist | gsp antag | Sfp PPTase inh | Menin-MLL FL inh | ClpP mod | gsp agonist
COc1cc(NC(=S)NC(=O)c2ccc(C(C)(C)C)cc2)ccc1NC(=O)c1cccs1 | -2.0% | -4.2 | 4% | 8% | 0.1 | -2.1% | -2%
COc1cc(OC)cc(-c2nnc(SCc3ccc(C(=O)O)cc3)o2)c1 | -2.0% | 1.6 | ? | 50µM* | 3.1 | -0.3% | -1%[15.4 µM]
O=C(NC(Cc1ccccc1)C(=O)N1CCc2ccccc2C1)c1ccccc1 (centres undefined) | 5.0% | 4.0 | -25% | -4% | -2.9 | nt | 21%
COC(=O)C1=C(NC(=O)CCCCl)CCS1 | -1.1% | -1.5 | -6% | ? | 3.0 | 0.8% | -44%[inhibitor]
COc1ccc(OCCCC(=O)N(CCC2=CCCCC2)c2c(N)n(Cc3ccccc3)c(=O)[nH]c2=O)cc1 | 5.3% | 3.3 | 1% | nt | nt | nt | -3%[15.4 µM]
COc1ccc(/C=C2\SC(=O)N(CCC(=O)N3CCN(C)CC3)C2=O)cc1 | 2.5% | -1.0 | 10% | 12% | -3.9 | -0.2% | 0%
CC(NC(=O)C1CC1)C(c1cccs1)N1CCN(c2ccccc2)CC1 (centres undefined) | 1.4% | -4.1 | 4% | 5% | -0.7 | -0.5% | 14%
CN(C)/C=C/C(=O)c1cccc(Cl)c1 | -2.2% | -2.9 | -12% | -14% | 4.0 | -3.3% | 15%
CCN(CC)CCN(Cc1cc2cc3c(cc2[nH]c1=O)OCO3)C(=S)NC | -1.5% | -2.0 | 1% | 26% | -5.1 | nt | -45%[inhibitor]
COc1ccccc1NC(=O)C/C(C)=N/NC(=O)c1ccccn1 | 1.7% | 2.8 | -12% | ? | -9.5 | nt | -5%[15.4 µM]
O=C(N/N=C\C=C\c1ccc2c(c1)OCO2)c1cccnc1 | 1.0% | -3.9 | -28% | -4% | 0.5 | -6.2% | -14%
COc1ccccc1Cn1c(=S)[nH]c2cc(C(=O)NCc3cccnc3)ccc2c1=O | 8.2% | -3.7 | -26% | 24% | -3.0 | nt | -1%[15.4 µM]
COCCNc1ncnc2c1ncn2[C@H]1CN(Cc2ccco2)C[C@@H](CO)O1 | 0.1% | -2.4 | nt | nt | nt | 0.1% | nt
O=C(c1ccccc1-c1ccccc1)N1CCOCC1 | -0.6% | -1.4 | 6% | 13% | 5.7 | 1.2% | 0%
c1ccc(CSc2nnc(-c3ccco3)n2Cc2ccccc2)cc1 | 0.1% | -4.0 | -8% | -6% | 2.0 | 0.5% | 2%
O=C(c1ccc2nc(N3CCOCC3)sc2c1)N1CCC(Cc2ccccc2)CC1 | 1.4% | -0.5 | -11% | -3% | 3.8 | -1.1% | -23%
S=c1[nH]ncn1/N=C/c1ccc(Br)cc1 | 0.8% | 4.1 | -2% | -6% | 2.5 | -2.2% | -45%
CCCCC(=Nc1ccccc1OC)C1=C(O)CC(c2ccccc2)CC1=O (centres undefined) | 4.3% | 3.2 | 10% | 6% | 5.0 | 0.6% | 18%
COc1cc(/C=N/NC(=S)NCCN2CCOCC2)ccc1O | -0.5% | 1.8 | 14% | 50µM* | 6.6 | -19% | 11%
N#Cc1ccccc1S(=O)(=O)N1CCN(S(=O)(=O)c2ccc(Br)c(C(=O)O)c2)CC1 | 3.6% | -0.7 | 9% | 4% | -2.9 | nt | 8%

# Single records, from the list above. Screens in order: PINK1 expr mod, D2 agonist, gsp antag, Sfp PPTase inh, Menin-MLL FL inh, ClpP mod, gsp agonist
# Entry for O=C(N/N=C\C=C\c1ccc2c(c1)OCO2)c1cccnc1 → 1.0%, -3.9, -28%, -4%, 0.5, -6.2%, -14%
# Entry for N#Cc1ccccc1S(=O)(=O)N1CCN(S(=O)(=O)c2ccc(Br)c(C(=O)O)c2)CC1 → 3.6%, -0.7, 9%, 4%, -2.9, nt, 8%

# The list goes on:
Molecule | PINK1 expr mod | D2 agonist | gsp antag | Sfp PPTase inh | Menin-MLL FL inh | ClpP mod | gsp agonist
Cc1nc(N2CCN(C)CC2)c2c(C)c(C(=O)Nc3ccc(F)cc3)sc2n1 | -0.2% | -4.4 | -4% | 3% | 5.2 | -3.3% | ?
CC(C)c1ccccc1NC(=O)COC(=O)c1cc([N+](=O)[O-])ccc1N1CCOCC1 | -1.2% | -4.2 | 1% | nt | nt | nt | -21%[15.4 µM]
Cc1ccccc1CSCC(=O)N/N=C/c1cccs1 | 5.6% | -2.6 | -13% | 9% | -0.2 | -2.2% | 15%
CN(C(=O)c1cccc(NC(=O)Cc2ccc(NC(=O)C3CCCN(C(=O)c4ccccc4)C3)cc2)c1)C1CCC1 (centres undefined) | -0.6% | 1.3 | -11% | nt | nt | 1.5% | nt
CN(C)S(=O)(=O)n1cc(/C=C(\NC(=O)c2ccccc2F)C(=O)N2CCOCC2)c2ccccc21 | 3.7% | 9.4 | 14% | 9% | -0.3 | -3.3% | -5%
O=C(CCN1CCCCC1)c1ccccc1 | 0.4%[38.3 µM] | -2.1 | 8% | 2% | -2.7 | -1.5% | 24%
COC(=O)c1ccccc1NC(=O)CN(c1ccc(OC)cc1)S(C)(=O)=O | 5.4% | -1.8 | -2% | 21% | 0.8 | -0.7% | 22%
Cc1cccc(C(=O)O/N=C(\N)c2cccc([N+](=O)[O-])c2)c1 | -1.9%[38.3 µM] | 15 | -12% | 16% | -0.5 | -2.4% | -3%
O=C(O)/C=C/c1ccc(S(=O)(=O)NCc2ccco2)cc1 | 1.3% | -1.9 | -1% | 12% | 5.6 | nt | 13%
COc1ccc(S(=O)(=O)N2CCC(C(N)=O)CC2)cc1 | -1.0% | -7.1 | 4% | nt | nt | 0.0% | 2%
CC(=O)c1ccc(S(=O)(=O)N2CCN(C(=O)/C=C/c3ccc4ccccc4n3)CC2)cc1 | 2.4% | -1.0 | -16% | 23% | 8.4 | -9.7% | 5%
C/C=C/c1ccc(OCCOc2cc(C=O)ccc2OC)c(OC)c1 | 19% | -2.1 | -23% | 2% | 6.5 | 2.6% | -48%[inhibitor]
CCCC(=O)N1CCC1(C)C(=O)Nc1cc(OC)c(OC)c(OC)c1 (centres undefined) | 1.4% | -0.8 | nt | nt | nt | -0.8% | nt
CCc1cccc(NC(=O)COC(=O)c2c(C)nn(-c3ccccc3)c2C)c1 | -1.4% | 2.9 | nt | nt | nt | -2.4% | -57%[inhibitor]
COc1ccc(-n2c(SCC(=O)Nc3ccc(C(N)=O)cc3)nc3c([nH]c4ccccc43)c2=O)cc1OC | 5.0% | 1.5 | -4% | 9% | -3.5 | -14% | 13%
COc1ccccc1NC(=O)c1cccc2c(Br)cccc12 | 2.7% | -2.9 | -15% | 9% | -0.2 | -5.4% | -12%
Clc1ccc(-c2cc(C3CCNCC3)[nH]n2)cc1 | 2.1% | -4.6 | 8% | -6% | -7.0 | nt | 2%[15.4 µM]
CCOc1ccc(NC(=O)CN(C)C(=O)c2cccnc2Sc2ccc(C)cc2C)cc1OCC | 3.5% | 1.1 | -13% | nt | nt | 1.4% | 3%
O=C(c1cc(-c2ccncc2)nc2ccc(Br)cc12)N1CCN(Cc2ccc3c(c2)OCO3)CC1 | -2.2% | 2.6 | 28µM* | 5% | -1.4 | 0.5% | 19%[15.4 µM]
Cc1ccc(NC(=O)C(C)N=C2NS(=O)(=O)c3ccccc32)cc1F (centres undefined) | 5.5% | 2.7 | 8% | 8% | -0.8 | nt | -23%[15.4 µM]
c1ccc(N2CCN(Cc3nnnn3C3CCCCC3)CC2)cc1 | nt | 0.6 | -1% | -9% | 2.8 | -1.5% | ?
Cc1nc2nc(SCC(=O)C(C)(C)C)[nH]c2cc1Br | 6.3% | -1.5 | -17% | 12% | 0.3 | 1.7% | 0%
COCCNC(=O)c1ccc(S(=O)(=O)c2ccc(Cl)cc2)c(NC(C)=O)c1 | -1.3% | 6.7 | 1% | 3% | 0.5 | -5.2% | -16%
CN(CC(=O)Nc1ccccc1Cl)C(=O)c1cccc(S(=O)(=O)N2CCN(c3ccccc3)CC2)c1 | 2.1% | -5.6 | -23% | nt | nt | 1.2% | 6%
Cc1ccccc1C1NC(=S)NC2=C1C(=O)CC(C)(C)C2 (centres undefined) | 1.6% | 1.9 | 9% | 10% | 0.1 | nt | 0%[15.4 µM]
COc1ccc(S(=O)(=O)Nc2cc(C(=O)NC3CCCCCC3)ccc2N2CCOCC2)cc1 | ? | 0.2 | -4% | 7% | 4.4 | -3.6% | -1%
COc1ccc(OCc2cc(C(=O)NCCN3CCCC(O)C3)no2)c(Cl)c1 (centres undefined) | -1.0% | 6.7 | 6% | 15% | nt | -0.8% | -2%
CCc1cc(C(=O)NNC(=S)NCc2ccccc2)cs1 | 7.8%[38.3 µM] | -1.0 | -4% | 10% | -1.0 | 2.5% | 12%
CSc1nc2ccc(NC(=O)c3c(-c4ccccc4)noc3C)cc2s1 | -1.1% | 5.8 | -23% | 10% | 2.8 | nt | 8%
COc1ccc(S(=O)(=O)NCC(c2ccc(F)cc2)N2CCOCC2)cc1Br (centres undefined) | -1.0% | -4.6 | -1% | nt | nt | 1.4% | -1%[15.4 µM]
CCc1nn(C(C)C(=O)NCc2ccc(Cl)cc2)c(=O)c2cc3occc3n12 (centres undefined) | 0.3% | -3.1 | -15% | 8% | 0.9 | -1.1% | 30%
COc1ccc(NC(=O)CSc2nc3ccsc3c(=O)n2CCCCCC(=O)O)cc1 | -1.9% | -0.7 | -7% | 22% | 3.3 | 0.2% | -6%[15.4 µM]
CC1(C(=O)NS(=O)(=O)c2ccc(F)cc2F)CCN1C(=O)Cc1ccccc1 (centres undefined) | 0.8% | -3.1 | nt | nt | nt | -1.1% | nt

# This is a random part of the collection. Share with any hit: about 5.1%.
